Screening data: PubChem, several laboratories
T cruzi inh – blocks replication of Trypanosoma cruzi; T. cruzi beta-gal in NIH3T3, luminescence, 90 h; inhibition, % (concentration not given with the values); 300,000 compounds, 1.4% hits;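 active means mean inhibition across valid replicates above about 55%, limit read from the data; inconclusive means mean below that limit but half or more replicates reach it; inactive means mean below it, under half of replicates reach it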;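 further: signal also drops with host cell toxicity which is not excluded here; 0% = plate median of DMSO wells and 100% = zero luminescence signal; higher percent means less beta-gal luminescence so fewer parasites; stock transfer was 50 nL into about 50 µL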
rRNA inh HTS – selective bacterial rRNA inhibition in E. coli | AID 720706 | 350,000 compounds, 1.6% hits | E. coli WT GFP vs humanized-ribosome RFP mutants, fluorescence, 24 h; stronger effect = lower value; DMSO median 0, no signal -100 | GFP signal change (wild-type ribosome), % (no concentration beside the values);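 active means significant combined selectivity score with lowered wild-type GFP, culture density cut under 30%, mutant RFP and density less affected; inactive means any of these conditions unmet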; further: one replicate is shown; some compounds called inactive have numbers as strong as hits
Bfl-1 A1 inh – inhibitors of the anti-apoptotic protein A1, read as caspase activation | MEF A1-2A-BIM cells, Caspase-Glo 3/7 luminescence, 3 h; percent of clofoctol response, vehicle zero | caspase activation, % (test concentration not listed) | 330,000 compounds, 0.066% hits | AID 2462;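 active means over half of replicate activation scores above 10%, or exactly half above 10 with the replicate mean above 10; inconclusive means replicate mean below 10 yet half the replicates above 10; inactive means over half of replicates below 10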;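 further: wells of about 30 µL received 50 nL stock; many hits fall short of the cut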
UCH37 DUB inh – inhibitors of human deubiquitinating enzyme UCH37; Q9Y5K5; purified proteasome/UCH37, Ub-AMC cleavage fluorescence; inhibition, % (no concentration beside the values); 330,000 compounds, 0.33% hits; AID 588478;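 active means mean of two replicates above 20%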;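 further: 0% = compound-free wells with enzyme and 100% = wells lacking proteasome; stock transfer was 100 nL into about 20 µL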
Target sequence (Q9Y5K5 whole entry, looked up): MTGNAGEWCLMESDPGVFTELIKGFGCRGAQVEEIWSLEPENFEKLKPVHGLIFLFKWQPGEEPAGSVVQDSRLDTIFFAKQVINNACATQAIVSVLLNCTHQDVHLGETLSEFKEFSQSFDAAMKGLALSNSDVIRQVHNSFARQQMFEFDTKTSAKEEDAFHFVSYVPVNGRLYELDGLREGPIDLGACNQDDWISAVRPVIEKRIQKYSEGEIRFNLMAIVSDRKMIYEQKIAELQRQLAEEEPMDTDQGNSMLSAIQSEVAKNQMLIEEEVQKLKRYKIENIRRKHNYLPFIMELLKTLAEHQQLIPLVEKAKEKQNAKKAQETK
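Material: Human UCH37 enzyme supplied as purified proteasome complex | Schedule: 30 min preincubation with enzyme, 25 min cleavage at room temperature | Detection: AMC fluorescence 355/460 nm | Measure: % inhibition of Ub-AMC cleavage fluorescence | Controls: Wells without proteasome as full block, compound-free enzyme plus substrate as uninhibited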
Beta apoptosis – beta cell apoptosis inhibition. INS-1E cytokine-induced death, ATP luminescence, 48 h; percent of positive-control rescue, neutral wells zero. 300,000 compounds, 0.8% hits. protection from apoptosis, % (concentration not given with the values);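 active means all replicates at 75% or more, or half of them and the mean; inconclusive means half reach 75% but not the mean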;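 further: 0% = cytokine-treated negative control wells and 100% = positive control rescue; higher means more ATP so stronger rescue from cytokine killing; wells of about 40 µL received 100 nL stock; the first replicate is given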
Ecoli growth – E. coli growth inhibition; OD600 absorbance (test concentration not listed); Escherichia coli growth, OD600, 23 h; stronger effect = lower value; 330,000 compounds, 0.21% hits;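 active means OD600 absorbance below the run mean of sample wells minus 3.6 SD, in any replicate, cut at about 0.56 in these data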;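 further: stock transfer was 300 nL into about 60 µL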
FGF22 binding – binders of recombinant human FGF22 by thermal shift | SYPRO orange fluorescence; percent of sucrose octasulfate shift, DMSO zero | calls only at 9.99 µM | 340,000 compounds, 1.5% hits;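 active means melting point raised past a set limit in the mean and every replicate; inconclusive means no clear call; three in four hits are not shown here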
Target sequence (Q9HCT0 whole entry, looked up): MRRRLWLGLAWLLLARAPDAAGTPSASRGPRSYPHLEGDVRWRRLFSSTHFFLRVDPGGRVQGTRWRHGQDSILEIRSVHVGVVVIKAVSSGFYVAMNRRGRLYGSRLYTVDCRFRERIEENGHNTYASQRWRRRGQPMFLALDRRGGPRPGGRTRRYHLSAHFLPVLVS
AF4-AF9 inh – blocks AF4 peptide binding to human AF9; P42568; AlphaScreen, biotin-AF4 peptide binding to FLAG-AF9; inhibition, % at 10 µM; 350,000 compounds, 0.47% hits;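 active means every replicate reaching a set inhibition limit, whatever the replicate mean, cut at about 25% in these data; inconclusive means mean inhibition reaches that limit but some replicates miss it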;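 further: 0% = plate neutral control median and 100% = total signal loss; the record names both 10 and 1 µM as test concentration; the first replicate is given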
Target sequence (P42568 whole entry, looked up): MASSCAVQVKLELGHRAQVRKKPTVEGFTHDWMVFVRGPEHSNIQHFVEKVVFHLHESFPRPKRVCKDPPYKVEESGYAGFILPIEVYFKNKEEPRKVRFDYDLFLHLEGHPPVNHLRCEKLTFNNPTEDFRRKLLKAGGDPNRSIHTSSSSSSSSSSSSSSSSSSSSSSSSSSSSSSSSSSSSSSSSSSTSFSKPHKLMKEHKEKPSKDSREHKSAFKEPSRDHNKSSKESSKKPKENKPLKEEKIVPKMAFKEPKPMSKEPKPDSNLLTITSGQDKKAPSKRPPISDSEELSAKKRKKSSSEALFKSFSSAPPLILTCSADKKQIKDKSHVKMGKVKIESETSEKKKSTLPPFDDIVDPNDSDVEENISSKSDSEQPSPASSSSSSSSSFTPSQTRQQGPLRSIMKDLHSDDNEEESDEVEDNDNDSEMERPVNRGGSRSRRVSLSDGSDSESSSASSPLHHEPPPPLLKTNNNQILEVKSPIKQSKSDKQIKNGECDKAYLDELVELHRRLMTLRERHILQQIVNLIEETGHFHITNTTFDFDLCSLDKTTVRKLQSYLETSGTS
rRNA inh HTS OD600 – second read-out of rRNA inh HTS, no call of its own (marks repeat the call); OD600 change, %; measured here: OD600 growth;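 optical density of the mix in the first replicate; 0 = DMSO median and -100 = no signal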
rRNA inh HTS RFP – second read-out of rRNA inh HTS, no call of its own (marks repeat the call); RFP signal change, %; measured here: RFP humanized mutant strains;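 first replicate; 0 = DMSO median and -100 = no signal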
Starred values were filed as active, the others as inactive; i = inactive; ? = inconclusive; . = no result given. Only part of the results is shown; count on the stated rates, not on these rows.

SMILES	T cruzi inh	rRNA inh HTS	rRNA inh HTS OD600	rRNA inh HTS RFP	Bfl-1 A1 inh	UCH37 DUB inh	Beta apoptosis	Ecoli growth	FGF22 binding	AF4-AF9 inh
CN(C)C(=O)c1ccc(NC(=O)c2cccc(S(=O)(=O)N3CCCc4ccccc43)c2)cc1	24	-1	-12	2.5	1.1	5.7	-3	0.66	i	7.5
Cc1ccc(S(=O)(=O)/C(C#N)=C/c2c(N3CCC(C(N)=O)CC3)nc3ccccn3c2=O)cc1	18	.	.	.	.	0.1	4	0.62	.	.
CCCCn1c(NS(=O)(=O)c2ccccc2)c(S(=O)(=O)c2ccc(C)cc2)c2nc3ccccc3nc21	3	9	7	-0.1	?	-463	86*	0.72	i	1.7
O=C(NNC1=NCCC1)C1CC1	-11	3	-1	-3.3	1.8	1.9	-1	0.69	i	-0.4
CCOc1cc2c3c(c1)C1(OCCO1)C(=O)N3C(C)(C)CC2C (centres undefined)	8	.	.	.	-0.8	1.4	.	0.69	.	.
Cc1ccnc(NC(=O)CSc2cc(=O)n(C)c3ccccc23)c1	13	.	.	.	-0.4	0.9	-15	0.66	.	.
COc1ccc(N2CC(C(=O)OCC(=O)c3cccc(OC)c3)CC2=O)cc1 (centres undefined)	-9	.	.	.	1.0	3.8	-5	0.69	.	.
CCOC(=O)c1ccc(N2CC(O)=C(c3nc4ccccc4c(=O)[nH]3)C2=N)cc1	21	.	.	.	0.7	-53	-2	0.69	.	.
NC(=O)CC(NC(=O)Cc1cccc2ccccc12)c1ccc(NCCc2ccccc2F)c([N+](=O)[O-])c1 (centres undefined)	-5	8	8	-4.5	-0.6	4.0	3	0.7	i	2.7
COc1ccc(C(c2nnnn2Cc2ccc(F)cc2)N2CCN(c3ccccc3)CC2)cc1 (centres undefined)	16	.	.	.	-0.3	5.2	2	0.75	.	.
CCOc1ccccc1NC(=O)Nc1c(C)n(-c2ccccc2)c(=O)n1C	-2	.	.	.	-0.1	-2.7	-9	0.69	.	.
CC(C)c1ccc(-c2nn(-c3ccccc3)cc2C2C(C#N)=C(N)OC3=C2C(=O)CC(C)(C)C3)cc1 (centres undefined)	3	.	.	.	0.4	2.8	-18	0.73	.	.
CCC(C)(C)NC(=O)C(c1ccccn1)N(C(=O)c1csnn1)C1CCCCC1 (centres undefined)	-17	13	7	1.6	0.6	-0.8	0	0.66	.	-2.0
CCCC(=O)NC(C)c1nc2ccccc2n1CC (centres undefined)	-10	7	6	-2.1	-0.4	3.8	-1	0.75	i	0.5
Cc1ccc(C(=O)N=c2sccn2C)o1	-4	15	20	-0.2	-0.3	12	-2	0.68	i	-1.0
COc1ccc(OC)c2sc(NC(=O)C3COc4ccccc4O3)nc12 (centres undefined)	-3	-9	-32	-8.5	0.3	2.0	2	0.71	i	-10
COc1ccc(C(=O)CCC(=O)NCCc2ccccc2F)cc1	-11	2	5	2.5	-0.8	0.7	0	0.67	i	-2.1
O=C(NCc1cccnc1)c1cc(Sc2ccc(F)cc2F)nc2ccccc12	1	-41	-64	-17	-0.2	-0.3	4	0.67	i	1.6
NC(=O)c1ccccc1OCC(=O)Nc1ccc2c(c1)OCCO2	.	5	2	3.9	.	1.8	.	0.64	i	-9.1
COc1ccc(C(=O)NCC(=O)OCC(=O)Nc2ncc(Cl)cc2Cl)cc1[N+](=O)[O-]	.	3	13	-0.1	-0.1	0.6	0	0.7	i	0.7
C=CCC1(O)CC(c2ccco2)NC(c2ccco2)C1CCC (centres undefined)	8	.	.	.	0.5	6.0	-12	0.68	.	.
Cc1ccc(/C=C2\C(=O)Nc3ccccc32)o1	9	-33	-44	-12	0.0	8.4	3	0.51*	i	?
O=C(NC(Cc1ccccc1)C(=O)N1CCN(S(=O)(=O)c2ccccc2)CC1)c1ccccc1 (centres undefined)	-5	13	11	-0.2	0.9	2.6	6	0.69	i	-2.9
COc1cccc(CN2CCNC(=O)C2CC(=O)N(C)Cc2nc(C)cs2)c1OC (centres undefined)	-2	3	1	-1.3	-1.0	-0.1	-4	0.71	i	0.9
Cc1cc(C)cc(NC(=O)CCN2CCOCC2)c1	-2	12	13	-0.7	0.4	1.8	-1	0.68	i	1.7
COc1ccc(CNCc2cccn2C)cc1	?	19	18	3.0	0.6	4.2	-5	0.71	i	9.7
COc1ccc(CCNC(=O)CCCC(=O)n2nc(C)c3ccccc32)cc1OC	0	-6	-7	-3.8	-0.2	2.0	3	0.61	i	0.4
O=C(Nc1ccc(Br)cc1)c1cccc(S(=O)(=O)Nc2cnc3ccccc3c2)c1	-2	.	.	.	-0.2	0.2	38	0.64	.	.
Cc1ccc(S(=O)(=O)N(C)Cc2ccc(C(=O)N/N=C/c3ccc(OC(F)F)cc3OC(F)F)cc2)cc1	23	.	.	.	0.5	.	.	.	i	-4.5
Cc1csc(SCC(=O)NCc2ccccc2)n1	-7	7	9	3.4	-0.6	0.3	-6	0.72	i	3.8

Looked up one by one from above, two records:
SMILES	T cruzi inh	rRNA inh HTS	rRNA inh HTS OD600	rRNA inh HTS RFP	Bfl-1 A1 inh	UCH37 DUB inh	Beta apoptosis	Ecoli growth	FGF22 binding	AF4-AF9 inh
COc1ccc(CCNC(=O)CCCC(=O)n2nc(C)c3ccccc32)cc1OC	0	-6	-7	-3.8	-0.2	2.0	3	0.61	i	0.4
COc1ccc(CNCc2cccn2C)cc1	?	19	18	3.0	0.6	4.2	-5	0.71	i	9.7

Continuation.
SMILES	T cruzi inh	rRNA inh HTS	rRNA inh HTS OD600	rRNA inh HTS RFP	Bfl-1 A1 inh	UCH37 DUB inh	Beta apoptosis	Ecoli growth	FGF22 binding	AF4-AF9 inh
CC(C)c1cc(C(=O)N2CCN(C(c3ccccc3)c3ccccc3)CC2)no1	8	.	.	.	0.1	0.2	2	0.7	.	.
CC(Sc1ccc2nnc(-c3ccc(F)cc3)n2n1)C(=O)O (centres undefined)	-6	7	5	0.7	0.3	-16	-5	0.76	i	-0.6
O=c1c2ccccc2nc2n1C(CSCc1ccc(Cl)cc1Cl)CS2 (centres undefined)	-23	.	.	.	0.6	-0.5	40	0.76	.	.
Nc1nnc(SCc2nc3scc(-c4ccccc4)c3c(=O)[nH]2)s1	-6	-6	-4	-0.5	0.2	2.8	2	0.66	i	-2.5
COc1ccc(-c2nn(-c3ccccc3C)cc2CNCCc2cnc[nH]2)cc1F	34	-7	-8	2.0	-0.4	1.7	-8	0.75	i	15
CCn1nc(NS(=O)(=O)c2ccc([N+](=O)[O-])cc2)c2cc3ccc(C)cc3nc21	1	6	8	1.8	-1.1	2.9	2	0.72	i	-8.8
Cc1ccc(NC(=O)Cn2ncc3c([nH]c4ccccc43)c2=O)cc1Cl	-2	7	13	-2.7	0.1	3.0	.	0.65	i	-1.6
CC(C)C(OC(=O)c1cccs1)C(=O)NCc1ccc2c(c1)OCO2 (centres undefined)	-9	6	2	-0.5	-0.6	-0.7	-1	0.71	i	-3.9
CCOC(=O)c1c(NC(=O)COC(=O)CCOc2cc(C)ccc2C)sc(C(=O)N(C)C)c1C	.	5	9	-0.8	.	1.9	.	0.66	i	1.7
CCOc1ccc(NC2=NC(C(=O)NCc3ccccc3)CC(=O)N2)cc1 (centres undefined)	-11	.	.	.	-0.7	2.4	7	0.68	.	.
CC(=O)Nc1ccc(S(=O)(=O)N(C)CC(=O)NCCC2=CCCCC2)cc1	-9	-1	-1	-2.3	0.2	2.8	1	0.68	i	0.6
Cc1ccc(C)c(S(=O)(=O)N2CCCOC2CNC(=O)C(=O)NCCCn2ccnc2)c1 (centres undefined)	3	.	.	.	-0.2	-0.5	.	0.69	.	.
Cc1cccc(NS(=O)(=O)c2c(C)n[nH]c2C)c1	-15	.	.	.	-1.1	-0.4	-1	0.62	.	.
Cc1ccc(NCc2nnc(SCC(=O)N3CCc4ccccc43)n2C)cc1	13	.	.	.	0.3	0.3	-8	0.67	.	.
CCN(c1ccccc1)S(=O)(=O)c1ccc2[nH]c(=O)[nH]c2c1	-8	-2	-3	0.9	-1.6	4.0	-4	0.65	i	2.6
COc1ccc(OC)c(C2=NOC(C(=O)Nc3ccccc3SC)C2)c1 (centres undefined)	15	.	.	.	1.4	2.0	.	0.68	.	.
Cc1ccc(OCC(=O)Nc2ccc3oc(=O)ccc3c2)c(C)c1	0	5	4	1.1	-0.5	-7.6	2	0.69	i	1.1
Cc1cc(NC(=O)C(C)SCC(=O)Nc2ccccc2N2CCCCC2)no1 (centres undefined)	0	-4	-10	1.7	0.4	1.0	0	0.65	i	-20
Cc1ccccc1OCc1n[nH]c(=S)n1-c1cccc(Cl)c1	-2	-3	-1	-1.1	-0.3	4.4	2	0.69	i	-30
CC1(C)C[C@H]2C3=CCC4[C@@]5(C)CC[C@H](O)[C@](C)(CO)C5CC[C@@]4(C)[C@]3(C)CC[C@@]2(C)[C@H](O)[C@@H]1O (some centres undefined)	.	.	.	.	.	2.7	.	0.74	i	0.8

Structures listed so far that contain a cyano group (2):
SMILES	T cruzi inh	rRNA inh HTS	rRNA inh HTS OD600	rRNA inh HTS RFP	Bfl-1 A1 inh	UCH37 DUB inh	Beta apoptosis	Ecoli growth	FGF22 binding	AF4-AF9 inh
Cc1ccc(S(=O)(=O)/C(C#N)=C/c2c(N3CCC(C(N)=O)CC3)nc3ccccn3c2=O)cc1	18	.	.	.	.	0.1	4	0.62	.	.
CC(C)c1ccc(-c2nn(-c3ccccc3)cc2C2C(C#N)=C(N)OC3=C2C(=O)CC(C)(C)C3)cc1 (centres undefined)	3	.	.	.	0.4	2.8	-18	0.73	.	.

(more compounds)
SMILES	T cruzi inh	rRNA inh HTS	rRNA inh HTS OD600	rRNA inh HTS RFP	Bfl-1 A1 inh	UCH37 DUB inh	Beta apoptosis	Ecoli growth	FGF22 binding	AF4-AF9 inh
O=C(CCl)c1ccc2[nH]c(=O)oc2c1	-12	19	12	-3.0	1.1	.	-9	.	i	3.0
CC(C)(C)NC(=O)CCCSc1nc2ccccc2s1	14	-28	-26	-9.5	-0.8	3.8	8	0.67	i	-0.3
Cn1c2c(c3ccccc31)CCN1CCC[C@]21c1ccccc1	39	-2	-7	1.0	1.8	-0.9	.	0.61	i	26*
Cc1ccc(N2CCN(c3ncccc3[N+](=O)[O-])CC2)c(C)c1	16	-26	-25	-9.5	0.3	1.4	2	0.65	i	?
O=C(O)c1ccc(S(=O)(=O)c2ccc3c(c2)C(=O)N(CC2CCCO2)C3=O)cc1 (centres undefined)	-10	.	.	.	-0.2	-2.5	-7	0.79	.	.
Cc1ccc(C(=O)NCC(c2ccco2)N2CCc3ccccc32)cc1C (centres undefined)	27	0	1	-0.4	1.5	1.4	6	0.71	i	-3.4
O=C(N/N=C/c1cc(Br)c(Br)o1)C(O)c1ccccc1 (centres undefined)	-7	16	-1	2.7	0.1	.	-16	.	i	-1.4
S=C(NC1CCCCC1)N1CCc2ccccc2C1	-1	.	.	.	1.1	3.6	11	0.66	.	.
CCc1ccccc1NC1Nc2cc(C)nn2S1 (centres undefined)	1	-6	5	2.1	0.6	5.2	-1	0.69	i	-1.9
CCN(CC(=O)Nc1ccc2c(c1)OCCO2)S(=O)(=O)c1ccccc1	1	5	5	0.8	-0.5	1.2	-1	0.68	i	4.5
